# Screening results from PubChem BioAssay.
# CHT inh: inhibits the human high affinity choline transporter; CHT-expressing cells, membrane potential dye, choline response; stronger effect = lower value; B-score at 10 µM; 310,000 compounds, 0.86% hits; AID 488975;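 active means B-score over 3 SD under the library average, and starting fluorescence ratio not unusually high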;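 further: choline stimulus applied at its EC90 after an EC20 pre-addition; B-score computed on integrated fluorescence ratio after choline addition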
# Calls only; i = inactive. Only part of the results is shown, and most or all hits are left out here.
CC(C(=O)NCc1ccccc1)N1C(=O)CN(C)C(=O)c2ccccc21 (centres undefined)
  CHT inh: i
Cc1cccc(NC(=O)CCC(=O)N/N=C/c2ccco2)c1C
  CHT inh: i
CC(C)OC(=O)CC1C(=O)NCCN1C(=S)NC(=O)c1ccccc1 (centres undefined)
  CHT inh: i
Cc1nn(-c2ccc([N+](=O)[O-])cc2)c(N)c1-c1ccccc1
  CHT inh: i
Cn1cccc1CNC(=S)Nc1cc(F)cc(F)c1
  CHT inh: i
S=c1[nH]nc(-c2ccc(Cl)cc2)n1CC1CCCO1 (centres undefined)
  CHT inh: i
COc1cccc(NC(=O)CCP(C)(=O)O)c1
  CHT inh: i
CN1C[N+]([O-])=C(c2ccccc2)C1(C)C
  CHT inh: i
CCN(CC)CCN1C(=O)C2C(C(=O)Nc3cccc(SC)c3)C3C=CC2(O3)C1C(=O)NC1CCCC(C)C1C (centres undefined)
  CHT inh: i
CN(Cc1cccc(F)c1)C(=O)c1cccc(S(=O)(=O)N2CCN(Cc3ccccc3)CC2)c1
  CHT inh: i
C=CCC(=O)N1CCCC(C(=O)c2ccc(Cl)cc2)C1 (centres undefined)
  CHT inh: i
CC(=O)Nc1ccc(-c2nnc(SCc3ccccc3C#N)n2C)cc1
  CHT inh: i
CNC(=O)Nc1ccc(S(N)(=O)=O)cc1
  CHT inh: i
CCc1ccc(/C(C)=N/Nc2cc(Cl)nc(C)n2)cc1
  CHT inh: i
Cc1ccc(CS(=O)(=O)CCC(=O)NCCCOC(C)C)cc1
  CHT inh: i
COc1ccc(CCNC(=O)C2CCC(=O)N(C3CCCCCC3)C2)cc1 (centres undefined)
  CHT inh: i
CC(Oc1ccccc1)C(=O)N1CCN(c2ccc(N3CCCCCC3)nn2)CC1 (centres undefined)
  CHT inh: i
Cc1ccc(S(=O)(=O)NCc2ccccc2)cc1C(=O)N1CCCCC1
  CHT inh: i
Cc1[nH]c2ccc3ccccc3c2c(=O)c1C/C=C/Cl
  CHT inh: i
COC(=O)c1ccc(OCC(=O)NC(C)(C)C)cc1
  CHT inh: i
Cc1c(NC(=O)C2CCCN2S(=O)(=O)c2ccc(Cl)cc2)c(=O)n(-c2ccccc2)n1C (centres undefined)
  CHT inh: i
C=CCOC(=O)C1=C[C@@H](c2csc3ccccc23)[C@H](CCCO)[C@@H](OCC)O1
  CHT inh: i
CCS(=O)(=O)c1ccc(O)c(NC(=O)Nc2cccc3ccccc23)c1
  CHT inh: i
CC(=O)C(Cc1cnc(Cl)s1)(Cc1cnc(Cl)s1)C(C)=O
  CHT inh: i
COc1ccc(-c2csc3nc(-c4ccccc4F)oc(=O)c23)cc1OC
  CHT inh: i
CCOC(=O)N1CCN(S(=O)(=O)N2CCCC(C(=O)NCCc3ccccc3)C2)CC1 (centres undefined)
  CHT inh: i
CC(=O)OC1OCCOC1NC(=S)Nc1cccc(C(F)(F)F)c1 (centres undefined)
  CHT inh: i

# Two of the compounds above, in CSV form.
Structure,CHT inh
CCc1ccc(/C(C)=N/Nc2cc(Cl)nc(C)n2)cc1,i
Cc1ccc(CS(=O)(=O)CCC(=O)NCCCOC(C)C)cc1,i

# Entries listed so far that contain an aryl thioether with sulfur outside any ring, in the order listed:
CCN(CC)CCN1C(=O)C2C(C(=O)Nc3cccc(SC)c3)C3C=CC2(O3)C1C(=O)NC1CCCC(C)C1C (centres undefined)
  CHT inh: i
CC(=O)Nc1ccc(-c2nnc(SCc3ccccc3C#N)n2C)cc1
  CHT inh: i

# Structural class, those above with an NH in an aromatic ring.
S=c1[nH]nc(-c2ccc(Cl)cc2)n1CC1CCCO1 (centres undefined)
  CHT inh: i
Cc1[nH]c2ccc3ccccc3c2c(=O)c1C/C=C/Cl
  CHT inh: i
